# eIF4H FP inh: inhibitors of RNA binding by human eIF4H; Q15056; eIF4H fluorescence polarization binding assay; inhibition, % at 35 µM; hit rate 0.94% among 290,000; AID 2012;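 active = 50% or more with normal probe brightness, or confirmed in later tests; inconclusive = above 50% with abnormal brightness, or retests that disagree; inactive = below 50% or failed in later tests; about a fifth of its hits are not listed in these tables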;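 also: calls also rest on retests at 20 µM and on dose response follow-up; 0% = protein and probe with vehicle and 100% = probe without protein; strong numbers were not always called active; many hits fall short of the cut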
# MT1-MMP act inh: MT1-MMP (human) activation inhibition. P50281. HT1080 RFP-PRO-GFP cells, GFP/RFP ratio fluorescence, overnight; percent of plate control window, DMSO zero. GFP/RFP ratio change, % at 20 µM. hit rate 0.061% among 360,000. AID 651647;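 active = GFP/RFP ratio change of at least 30% with cell ATP level not reduced by more than half and red fluorescence within 50% of control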; also: strong numbers were not always called active
#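 Assay system: HT1080 cells carrying an RFP-PRO-GFP reporter | Dosing: Single dose of 20 µM compound, 1% DMSO final | Incubation: Cells overnight before dosing, compound overnight, 37 °C, 5% CO2 | Evaluation: GFP/RFP fluorescence ratio | Control set: DMSO and RFP-L50D-GFP cell wells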
# HIV Env fusion: blocks HIV Env-driven cell-cell fusion | HeLa-JRFL Env/CEM21 cell fusion, luciferase | inhibition, % at 12.3 µM | hit rate 1.1% among 360,000 | AID 651610;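 active = mean replicate inhibition score of at least 50 and every replicate individually at or above 50; inconclusive = only one of the two criteria met; inactive = mean below 50 and not all replicates reaching 50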;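 also: 0% = plate neutral controls and 100% = maraviroc near 300 nM; one replicate is shown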
# Rce1 inhib: blocks yeast Ras-converting enzyme; Q03530; yeast membranes, quenched prenylated peptide cleavage fluorescence; calls only; hit rate 0.27% among 290,000; AID 2563;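 active = fall in fluorescence gain of 50% or more versus controls, with final raw signal at or below 3038400; inconclusive = same 50% fall but final raw signal above 3038400; inactive = fall in fluorescence gain under 50%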;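 also: plate controls were neutral control wells for no effect and wells lacking membranes for full effect; tested at 10 µM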
# Target sequence (Q03530 whole entry, looked up): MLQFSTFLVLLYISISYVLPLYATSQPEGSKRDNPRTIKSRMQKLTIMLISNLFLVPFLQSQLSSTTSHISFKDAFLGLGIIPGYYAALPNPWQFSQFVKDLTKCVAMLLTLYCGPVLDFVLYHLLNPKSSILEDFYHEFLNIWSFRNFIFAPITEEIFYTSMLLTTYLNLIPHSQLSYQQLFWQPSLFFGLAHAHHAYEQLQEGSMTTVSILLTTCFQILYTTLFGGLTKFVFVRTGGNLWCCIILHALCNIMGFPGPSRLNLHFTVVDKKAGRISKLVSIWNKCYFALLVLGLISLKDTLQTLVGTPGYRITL
# CSC inhib: blocks cancer stem cells. AID 2717. hit rate 1.1% among 300,000. cancer stem cell-like cells viability, luminescence. inhibition, % at 7.5 µM;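 active = mean at 75% or more and at least half the replicates too; inconclusive = mean and replicates disagree; tested in HMLE shEcad cells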;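 also: 0% = median of negative and 100% = median of positive control wells; the first replicate is given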
# UUG fidelity: yeast start codon fidelity modulation; hit rate 0.13% among 350,000; S. cerevisiae UUG-firefly luciferase reporter, luminescence/redox ratio; activity score, % at 18.7 µM;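 active = replicate mean at a twofold rise or more, about +100% in these data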;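 also: firefly luciferase made from a UUG start codon reports start codon fidelity; reporter light over untreated wells divided by growth signal over untreated wells; some hits fall short of that in this replicate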
# PABP FP inh: PABP-poly(A) binding inhibition; PABP-poly(A) RNA binding, fluorescence polarization; inhibition, % at 35 µM; P11940; hit rate 1% among 290,000;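 active = 50% or more with normal probe brightness, or confirmed in later tests; inconclusive = above 50% with abnormal brightness, or retests that disagree; inactive = below 50% or failed in later tests; about a fifth of its hits are not listed in these tables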;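 also: calls also rest on retests at 20 µM and on dose response follow-up; controls were probe without protein and protein plus probe with vehicle; some compounds called inactive have numbers as strong as hits; many hits fall short of the cut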
# MT1-MMP act inh RFP: recorded beside MT1-MMP act inh, whose call it bears; RFP signal change, %; measured here: RFP expression control read;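 0 = vehicle wells; hits needed this value within 50% of zero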
# Active calls of the source: *; i = inactive; ? = inconclusive; . = no result given; & = joins results of further samples; [ ] = dose if it differs, or a comment.
SMILES,eIF4H FP inh,MT1-MMP act inh,MT1-MMP act inh RFP,HIV Env fusion,Rce1 inhib,CSC inhib,UUG fidelity,PABP FP inh
c1ccc2c(c1)OCC(CNc1ncnc3nc[nH]c13)O2 (stereo not drawn),-5.8,-0.6,-13.4,72.9*,i,-5.2,-19.0,-2.4
CC(=Nc1ccc(O)cc1)c1sc2ccccc2c1O,?,-237.3,-0.1,.,i,8.8,-6.2,13.8
CCN(CC)S(=O)(=O)c1ccc(C(=O)NCC(=O)N/N=C/c2ccccc2OC)cc1,3.8,-0.1,-3.1,-8.5,i,-6.8,-8.3,-6.8
Cc1ccc(N(C)/N=C/c2ccc(Cl)cc2Cl)nn1,-8.3,0.8,1.9,-31.1,i,9.9,-2.3,0.8
COc1ccc2c(=O)c3c(=O)n(CCc4ccccc4)c(C)nc3oc2c1,.,-6.4,-1.4,16.0,.,.,-0.1,.
Cc1cc(OCC(=O)Nc2ccccc2F)nc(C(C)C)n1,-1.6,2.4,-4.2,.,i,-0.3,-24.4,2.3
CCCOc1nc2ccccc2cc1/C=C/C(=O)O,15.4,-7.7,-4.8,-1.2,i,30.6,-2.0,-1.9
CC(C)CCNC(=O)c1nnc(Cc2ccc(Cl)cc2)o1,-10.3,0.1,-0.3,15.5,i,4.7,-27.2,-5.8
CNC(=O)c1cc(S(=O)(=O)NCc2ccncc2)ccc1OC,-4.3,1.5,-2.8,10.6,i,-11.6,4.1,-5.0
CC(=O)Nc1ccc(NC(=O)CSc2nnc(NC(=O)C3CC3)s2)cc1,-14.2,-0.1,0.0,4.3,i,-28.0,-8.3,-1.6

# 3 neighbouring records out of the list so far, for reference:
SMILES,eIF4H FP inh,MT1-MMP act inh,MT1-MMP act inh RFP,HIV Env fusion,Rce1 inhib,CSC inhib,UUG fidelity,PABP FP inh
CC(C)CCNC(=O)c1nnc(Cc2ccc(Cl)cc2)o1,-10.3,0.1,-0.3,15.5,i,4.7,-27.2,-5.8
CNC(=O)c1cc(S(=O)(=O)NCc2ccncc2)ccc1OC,-4.3,1.5,-2.8,10.6,i,-11.6,4.1,-5.0
CC(=O)Nc1ccc(NC(=O)CSc2nnc(NC(=O)C3CC3)s2)cc1,-14.2,-0.1,0.0,4.3,i,-28.0,-8.3,-1.6

# (list continues)
SMILES,eIF4H FP inh,MT1-MMP act inh,MT1-MMP act inh RFP,HIV Env fusion,Rce1 inhib,CSC inhib,UUG fidelity,PABP FP inh
O=C(Nc1ccc(Cl)c(Cl)c1)c1ccc(Cn2c(=O)[nH]c3ccsc3c2=O)cc1,3.2,0.7,-1.6,18.1,i,33.5,-13.1,-9.2
COC(=O)[C@H](CCSC)NC(=O)Nc1ccc(C(C)C)cc1,8.4,-0.9,-1.5,3.2,i,-7.6,-1.9,2.3
Nc1ccccc1SC1CC(=O)N(c2ccccc2Cl)C1=O (stereo not drawn),-7.7,0.0,1.5,2.6,i,-5.3,-18.7,2.8
Cn1c(=O)oc2cc(S(=O)(=O)N3CCOCC3)ccc21,-9.7,2.5,9.2,.,i,-11.8,.,-6.3
Cc1c(N=C2NN=C(c3c[nH]c4ccccc34)CS2)c(=O)n(-c2ccccc2)n1C,1.3,-6.0,5.2,38.3,i,-2.8,-10.1,8.0
C=CCn1c(Sc2nnc(C)s2)nc2c1c(=O)[nH]c(=O)n2C,-1.6,-1.8,0.8,-487.8,i,-4.2,-21.1,0.7
C=CCNc1ncnc2c1ncn2[C@H]1CN(CCc2ccccc2)C[C@@H](CO)O1,.,-2.5,4.8,-3.0,.,.,-11.1,.
COc1ccccc1N1CCN(C(=O)c2nn(-c3ccccc3OC)c(=O)c3ccccc23)CC1,-4.1,-1.5,-3.6,.,.,.,8.4,-5.1
OCCNc1ncnc2c1ncn2[C@H]1CN(Cc2ccncc2)C[C@@H](CO)O1,.,2.8,1.4,4.7,.,.,-16.8,.
CN1C(=O)CC(N2CCC(c3nc4ccccc4s3)CC2)C1=O (stereo not drawn),-2.3,6.9,1.4,.,i,0.6,-0.5,-7.6
COc1ccc(CCN(C)C(=O)c2ccc(OCC(=O)N3CCOCC3)c(OC)c2)cc1OC,-3.0,-1.1,4.7,.,i,.,-9.3,29.9
CCn1c(SCc2nc3ccccc3s2)nnc1-c1cccs1,-3.3,-15.5,-5.8,.,i,0.3,-19.7,8.2
COc1cc2cc(C(=O)N3CCN(Cc4ccc5c(c4)OCO5)CC3)[nH]c2cc1OC,7.2,-2.1,1.9,-11.4,i,-13.3,-7.5,7.7
Cc1ccc(NC(=O)CSc2nnc(/N=C/N(C)C)s2)cc1,-6.6,1.3,-2.7,8.4,i,-0.7,.,-4.0
COc1ccc(CNC(=O)C2(c3ccc(Cl)cc3)CC2)cc1,-9.6,0.4,0.3,-13.4,i,18.8,-5.9,-9.2
COc1ccc(S(=O)(=O)N(C)c2nc3ccccc3n3c(CC(C)C)nnc23)cc1,6.3,7.2,-3.7,4.9,i,-9.3,-18.5,-10.0
c1ccc2c(c1)CC(CN1CCNCC1)O2 (stereo not drawn),-5.5,-2.8,2.7,6.3,i,.,-6.8,-2.2
COc1cc(OC)c2c(-c3cccc(-c4cccc(C)c4)c3)cc(=O)oc2c1,.,-1.5,-16.1,24.0,.,.,-12.4,.
O=C(Nc1ccc2c(c1)CCC2)c1ccc(Br)o1,9.8,-7.2,-4.3,-170.8,.,-5.5,-3.5,9.5
O=C(O)C1CC(c2ccccc2F)=NO1 (stereo not drawn),-2.2,4.4,7.1,-89.0,i,-3.2,-3.8,-6.6
COc1ccccc1-c1nnc2n1N=C(C(C)(C)C)CS2,-13.2,6.5,4.7,-20.6,i,7.5,0.5,38.6
COC(=O)c1ccc(Cl)c(NC(=O)CN2CCOCC2)c1,0.7,2.3,3.0,.,i,-1.3,13.4,-2.9
O=C(NC1(C(F)(F)F)N=C2SCCN2C1=O)c1cccnc1 (stereo not drawn),9.4,3.1,2.5,-2.1,i,3.8,.,-8.0
O=C(CSc1nnc(CNC(=O)c2cccs2)o1)c1ccc(Cl)cc1,-4.5,2.0,-1.3,5.9,i,1.0,-17.9,-8.4
CN(Cc1cnccn1)C(=O)CC1C(=O)NCCN1CC(c1ccccc1)c1ccccc1 (stereo not drawn),3.3,3.0,4.5,2.4,i,4.7,-7.9,0.1
Cc1ccc(C(=O)OCCc2sc[n+](Cc3ccccc3)c2C)cc1,-6.8,3.8,4.3,-6.4,i,2.3,.,14.2
C#CCNC(=O)C1=C[C@H](C2CCCCC2)C[C@H](OCCCCO)O1,-9.8,5.9,5.0,2.6[16.7 µM],i,2.4,3.0&-1.2,-1.1
Cc1onc(-c2ccccc2Cl)c1C(=O)OCC(=O)c1ccccc1,-10.2,5.7,-5.8,.,i,-9.8,4.3,-8.1
CN1CC(=O)NC1=NC(=O)C12CC3CC(CC(C3)C1)C2,8.0,7.6,9.4,.,i,1.4,-14.5,-5.4
CCOC(=O)Cc1csc(NC(=O)NC2(C(F)(F)F)Oc3ccccc3O2)n1,0.2,2.4,-10.2,-18.5,i,11.2,-13.0,-0.8

# Grouped by structure, the compounds so far containing a thiophene ring, fused or not
SMILES,eIF4H FP inh,MT1-MMP act inh,MT1-MMP act inh RFP,HIV Env fusion,Rce1 inhib,CSC inhib,UUG fidelity,PABP FP inh
CC(=Nc1ccc(O)cc1)c1sc2ccccc2c1O,?,-237.3,-0.1,.,i,8.8,-6.2,13.8
O=C(Nc1ccc(Cl)c(Cl)c1)c1ccc(Cn2c(=O)[nH]c3ccsc3c2=O)cc1,3.2,0.7,-1.6,18.1,i,33.5,-13.1,-9.2
CCn1c(SCc2nc3ccccc3s2)nnc1-c1cccs1,-3.3,-15.5,-5.8,.,i,0.3,-19.7,8.2
O=C(CSc1nnc(CNC(=O)c2cccs2)o1)c1ccc(Cl)cc1,-4.5,2.0,-1.3,5.9,i,1.0,-17.9,-8.4

# Following part.
SMILES,eIF4H FP inh,MT1-MMP act inh,MT1-MMP act inh RFP,HIV Env fusion,Rce1 inhib,CSC inhib,UUG fidelity,PABP FP inh
O=C(COC(=O)COc1cccc(F)c1)NCC1CCCCC1,.,1.8,-0.7,.,.,-1.8,3.2,.
CC1(C)N([O-])C2=C(c3ccccc3C2=O)[N+](=O)C1(C)C,-7.5,-1.2,6.1,.,i,-19.2,9.6,5.9
COc1cc(C[C@H](C)[C@H](C)Cc2ccc3c(c2)OCO3)ccc1O,-12.7,11.2,-5.6,.,i,126.5*,-3.0,-8.2
Cc1ccnc(NC(=O)CCCOc2ccccc2)c1,-11.9,4.2,1.4,-16.4,i,-12.7,.,-13.6
CCOC(=O)N1CCC(N2CCN(Cc3ccc(C)o3)C(CCO)C2)CC1 (stereo not drawn),8.7,2.1,4.2,-118.6,i,-0.5,2.8,-2.6
COc1ccc(-c2csc(NC(=O)COC(=O)Cc3ccc(Cl)cc3Cl)n2)cc1,-5.8,.,.,.,i,4.1,.,-1.4
CCOc1ccc(NC(=O)CSc2nc3cccnc3n2CCOC)cc1,10.3,-8.5,-2.8,.,i,-10.4,-8.2,9.9
CCCCCCN1C[C@@H](n2cc(COC(=O)c3ccccc3)nn2)[C@H](O)C[C@@H]1c1ccc(OC)cc1,.,-0.2,-2.5,-1.7,.,.,5.8,.
COc1cccc2cc(C(=O)NCc3ccc(F)cc3)c(=N)oc12,-1.9,-1.9,5.6,-3.1,i,5.0,-8.5,-6.0
CC1=C(C(=O)OCc2ccccc2)N2C(=O)[C@@H](NC(=O)COc3ccccc3)[C@H]2SC1,-9.3,1.3,-1.4,0.2,i,9.2,-11.4,0.4
O=C(N[C@H]1c2ccccc2C[C@H]1O)[C@H]1O[C@@H](n2ccc(=O)[nH]c2=O)[C@H](O)[C@@H]1O,.,2.2,7.0,-3.6,.,.,-12.8,.
CCOC(=O)c1[nH]c2cc3c(cc2c1NC(=O)CN1CCCCC1C)OCO3 (stereo not drawn),-10.1,.,.,.,i,-5.6,.,-1.0
CCOC(=O)C1CCN(C(=O)COC(=O)c2oc3ccccc3c2C)CC1,.,2.6,-0.3,3.0,i,-13.5,1.4,.
CC(C)(C)NC(=O)Cn1c(SCC(=O)NC2CCCC2)nc2ccccc21,7.4,0.0,-3.5,1.9,i,-2.1,-21.5,-2.4
COc1ccc(-c2nnc(C)c3nocc23)cc1,-5.4,-4.7,6.2,2.2,i,3.1,.,-7.0
Cn1c(SCC(=O)NCc2ccc3c(c2)OCO3)nnc1-c1cccs1,-5.7,1.9,8.5,5.3,i,-7.1,.,-0.5
COC(=O)c1sc2nc(C)nc(SCC(=O)N3CCC(C(=O)O)CC3)c2c1C,3.8,0.9,2.6,-8.2,i,-9.2,.,8.4
Cc1ccc(S(=O)(=O)N2CCC(C(=O)NCc3ccccc3Cl)CC2)cc1,3.0,4.7,-0.3,.,i,-11.7,-0.8,-6.8
CC(NC(=O)/C(=C\c1ccco1)NC(=O)c1ccccc1Br)C(=O)O (stereo not drawn),28.1,-7.8,-0.8,7.3,i,-14.3,.,1.9
COc1ccc(C2C=C(c3ccccc3)Nc3nc(NC(C)=O)nn32)cc1 (stereo not drawn),7.6,.,.,.,i,-14.4,.,20.8
CN(C[C@H](Cc1ccccc1)N(C[C@H](Cc1ccccc1)N(CCc1cc(C(F)(F)F)cc(C(F)(F)F)c1)N=O)N=O)N=O,2.8,-8.0,-5.2,56.1*,i,-1.8,-15.8,-9.7
CCOC(=O)Cc1csc(NC(=O)c2cc(-c3ccncc3)nc3ccccc23)n1,.,3.1,0.4,3.9,.,5.3,-22.1,.
C=CCOc1cccc(C(=O)N2CCCC(CCC(=O)NCc3ccccc3F)C2)c1 (stereo not drawn),-1.2,-3.5,-4.0,20.8,i,-10.5,.,-0.6
Cc1cc2cc(CNC(=O)COc3ccccc3)ccc2n1C,8.7,34.6,60.5,13.0,i,-16.1,-12.4,9.7

# Only part of the results is shown; the hit share may differ from the screen's.
